NPYLR7 ag = mosquito NPYLR7 agonism; HEK293T NPYLR7/Galpha15, GCaMP6s calcium fluorescence; 270,000 compounds, 0.15% hits; activation, % at 10 µM; AID 1259423; in the data active means activation above about 40%;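 further: 0% = vehicle and 100% = reference agonist at the receptor; some compounds past the cut are filed as inactive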
NPYLR7 ag max-min = further read-out of NPYLR7 ag, marked with its call; activation, %; measured here: Max-Min RFU normalised activation; some inactives read as strong as hits;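 span of the calcium signal over five minutes; 0% = vehicle and 100% = native peptide agonist; compound fluorescence can raise it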
Active calls of the source: *; & = joins results of further samples.

SMILES | NPYLR7 ag | NPYLR7 ag max-min
Cc1ccc(NC(=O)CSc2c(CC(C)C)cnc3c2c(=O)n(C)c(=O)n3C)cc1Cl | 2 | 2
CC(C)SC(NC(=O)OCc1ccccc1)C(=O)N1CCN(C(=O)c2ccco2)CC1 (stereo not given) | -11 | -16
COc1ccccc1C1c2cccn2CCCN1Cc1cccnc1 (stereo not given) | 7 | 8
COC(=O)[C@@H]1C(c2c(OC)cc(OC)cc2OC)=NO[C@H]1C(=O)OC | -3 | -5
COc1cccc(C(C2Sc3nc(C)nn3C2=O)N2CCN(C)CC2)c1 (stereo not given) | 8 | 5
CCN(CC)CCNc1c([N+](=O)[O-])c(=O)n(C)c2ccccc12 | 11 | 5
Cc1ccccc1-c1nc(SC2CCCC2)c2c(=O)n(C)c(=O)n(C)c2n1 | -2 | -7
CCCn1c(N2CCN(Cc3c(Cl)cccc3Cl)CC2)nc2c1c(=O)[nH]c(=O)n2C | 11 | 1
OCc1ccccc1-c1ccc(O)c(-c2ccno2)c1 | -2 | -5
O=C1OC(/C=C/c2ccccc2)=NC/1=C/c1ccc(Cl)cc1 | -2 | -4
COc1cccc(-n2nnc(C(=O)Nc3ccc(Oc4ccccc4)cc3)c2C)c1 | 9 | 12
CC(C)NC(CCO)C1CCCCC1 (stereo not given) | -7 | -9
Cc1cc(C(=O)N2C[C@@H](N)C[C@H]2C(=O)NC(C)C)c(-c2ccccc2)o1 | -4 | -5
CNC(=O)C1Cc2ccccc2CN1C(=O)C1CCCC1 (stereo not given) | 10 | 7
COc1ccc(-c2cc(C(=O)NCc3ccccc3Cl)c3ccccc3n2)cc1 | -11 | -16
CC(=O)Cc1nsc(NC(=O)c2csc3c2CCCC3)n1 | 2 | -1
COc1ccc(OC)c(-c2cc(C(=O)O)c3[nH]c(-c4ccccc4)nc3n2)c1 | -3 | -4
CC(C)c1ccc2cc(C(=O)N(C)[C@@H]3CS(=O)(=O)C[C@H]3O)[nH]c2c1 | 0 | 13
COc1ccccc1N1CCN(C(=O)c2ccc(OC)c([N+](=O)[O-])c2)CC1 | -2 | -4
COC(=O)c1sccc1NC(=O)COc1ccccc1F | 14 | 5
CC(Sc1nnnn1-c1ccccc1)c1cccc([N+](=O)[O-])c1 (stereo not given) | 6 | 2
Cc1nnc(NC(=O)C(C)C)s1 | -2 | -3
O=C(O)c1ccc(CSc2nnc(Cc3ccccc3)n2Cc2ccccc2)cc1 | 2 | -1
Cc1cc(C)cc(-n2c(C)cc(/C=C3\C(=O)NC(=S)N(c4ccc(Cl)cc4)C3=O)c2C)c1 | 16 | 3
CCc1[nH]n(-c2cccc(Cl)c2)c(=O)c1C1=C([n+]2ccccc2)C(=O)N(c2cccc(C)c2)C1=O | -4 | 2
CCOc1ccc(-c2cc3c(SCC(=O)OC)nccn3n2)cc1Cl | 7 | 5
COc1cn(CC(=O)NCCc2ccccc2)c(CN2CCN(C(C)=O)CC2)cc1=O | -3 | -3
COc1ccc(NC(=O)CSc2ccc3nnc(-c4ccncc4)n3n2)cc1 | -2 | -4
CC1(C(=O)NS(=O)(=O)Cc2ccccc2)CCN1C(=O)c1ccco1 (stereo not given) | 6 | 5
Cc1nonc1C1CCCN1Cc1nnc(-c2ccc(C)n2C)o1 (stereo not given) | 2 | 0
COc1ccc(Cl)cc1NC(=O)CSc1nc(=O)n(CCN(C)C)c2c1CCC2 | 2 | -2
COCC1(C(=O)N(C)Cc2cn[nH]c2-c2ccc(F)cc2)CCC1 | 13 | 11
CCOC(=O)CCC(=O)N1CCN(c2nc(CCC(C)C)nc3c2cnn3-c2cccc(Cl)c2)CC1 | 16 | 18
COCC(=O)N(CC(=O)N(CCc1c[nH]c2ccccc12)Cc1ccc(F)cc1)CC(C)C | 14 | 22
CC1=C(C(=O)OC(C)C)C(c2ccccc2Cl)NC(=O)N1C (stereo not given) | -1&1 | -5&-3
CC(=O)Nc1ccc(-n2c(CCC(=O)NCCCN3CCOCC3)ccc2-c2ccc(F)cc2)cc1 | 1 | -3
Cc1cc(Br)cc2c1N(CC(=O)N1CCN(S(C)(=O)=O)CC1)CCC2 | -3 | -6
COc1ccc(CN2CCc3cc(OC)c(OC)cc3C2CNC(=O)c2ccccc2C)cc1 (stereo not given) | 5 | 7
Cc1ccc(NC(=O)NCCOc2cc(N3CCN(C)CC3)ncn2)cc1C | -1 | -2
Cc1ccc2cc(CCNC(=O)CCC3CCCCC3)c(=O)[nH]c2c1 | 2 | 30
CC(C)(O)C#Cc1ccc(C(=O)NCc2ccc(-c3ccccn3)s2)o1 | 6 | 6
CC(=O)N1CCc2c(nc(-c3cccnc3)nc2NC2CCC(=O)N(C)C2)C1 (stereo not given) | -2 | -2
Cc1ccc(C(C)NC(=O)CN2CCN(C(=O)c3ncn[nH]3)CC2)cc1 (stereo not given) | 16 | 10
COc1cc(OC)c(CN2CCCn3cccc3C2c2ccccc2C(F)(F)F)c(OC)c1 (stereo not given) | 15 | 28
CCOC(=O)c1c(C)nc2nc(-c3ccncc3)nn2c1C | -14 | -16
CNc1cnc(-c2cccc(O)c2)cn1 | 0 | -2
Cc1nc(-c2ccccn2)sc1C(=O)NCC(CC(C)C)N1CCOCC1 (stereo not given) | 7 | 2
Cc1ccc(-n2cc(CN(C)Cc3nc(-c4cccnc4)no3)c(-c3cccc(C)c3)n2)cc1 | 15 | 7
CCOC(=O)c1nc2cc(Cl)c(Cl)cc2nc1N1CCN(C(=O)c2cc(C)oc2C)CC1 | 19 | 27
Nc1nc2cc3c(cc2s1)OC(F)(F)O3 | 19 | 16
Cc1cc(NC(=O)c2cn(Cc3ccccc3)nc2OCc2ccccc2)no1 | 17 | 6
Cc1cc(C(F)(F)F)nc(CCn2ccnc2-c2nc[nH]c2C)n1 | -1 | -2
C/C(=C\c1ccco1)CN1CCN(c2nc3cc(C)ccc3o2)CC1 | -3 | -11
CC(C)C1CN(CC(=O)N2CCOCC2)CCC(=O)N1Cc1ccc(F)cc1 (stereo not given) | 7 | 1
COc1ccc2c(c1)CCCN2CCC(=O)Nc1ccccc1 | 4 | 0
CC(NC(=O)NCc1ccccc1Cl)c1ccccn1 (stereo not given) | -1 | 0
CC(C)(CNC(=O)C1CC2CCCC(C1)C2=O)c1ccc(Br)cc1 (stereo not given) | -2 | -2
COc1cccc(CN2CCC(NS(C)(=O)=O)CC2)c1O | -6 | -8
Cc1noc(-c2ccccc2)c1NC(=O)Nc1nc(COCCO)cs1 | 13 | 12
Cc1cc(C(=O)N(CC2CCN(C3Cc4ccccc4C3)CC2)CC2CCCO2)nc(C)n1 (stereo not given) | 7 | 4

Some of the entries above, set out differently.
Compound	NPYLR7 ag	NPYLR7 ag max-min
Cc1cc(C(F)(F)F)nc(CCn2ccnc2-c2nc[nH]c2C)n1	-1	-2
CC(C)(CNC(=O)C1CC2CCCC(C1)C2=O)c1ccc(Br)cc1 (stereo not given)	-2	-2
CC(=O)Cc1nsc(NC(=O)c2csc3c2CCCC3)n1	2	-1
CCOC(=O)c1c(C)nc2nc(-c3ccncc3)nn2c1C	-14	-16
CC(C)(O)C#Cc1ccc(C(=O)NCc2ccc(-c3ccccn3)s2)o1	6	6
Cc1ccc(NC(=O)CSc2c(CC(C)C)cnc3c2c(=O)n(C)c(=O)n3C)cc1Cl	2	2
Cc1cc(C)cc(-n2c(C)cc(/C=C3\C(=O)NC(=S)N(c4ccc(Cl)cc4)C3=O)c2C)c1	16	3

The results go on.
SMILES | NPYLR7 ag | NPYLR7 ag max-min
Cc1ccoc1C(=O)N1CCC(c2n[nH]c(=O)n2Cc2ccccc2)CC1 | -4 | -7
CN(C)c1ccc(P(=O)(OC2CCCCC2)C(O)c2ccccc2F)cc1 (stereo not given) | -2 | 1
Cc1ccc2nc(CN(C)C3CCN(C(=O)c4cnccn4)CC3)[nH]c2c1 | 12 | 9
N#Cc1cc(NC(=O)NCc2ccco2)ccc1Cl | 4 | 3
CC(NC(=O)c1cc(Br)ccc1O)c1ccccc1 (stereo not given) | 1 | 1
CC(C)N(CC(=O)Nc1nc(CC(=O)O)cs1)C(=O)c1ccc(Cl)cc1 | -3 | -11
CCc1nc(C)sc1CN1CC2(CCNCC2)CC1C(=O)O (stereo not given) | 14 | 14
Cc1ccc(Cn2c(CN3CCOCC3)nc3c2c(=O)[nH]c(=O)n3C)cc1 | -11 | -12
N#CC(=Cc1ccc(OC(F)F)cc1)C(N)=S | 14 | 2
CCOC(=O)C1(C)CCN1C(=O)c1ccc(C)cc1 (stereo not given) | 2 | 0
O=[N+]([O-])c1ccc2c(c1)S(=O)(=O)N=C2Nc1ccc(Br)cc1 | -15 | -18
CCCCCCc1ccc(C(=O)N2CCC[C@H]2C(=O)OCCc2ccc(OC)c(OC)c2)cc1 | -3 | -10
CCn1c(SCC(=O)N/N=C\c2ccccc2O)nc2ccccc21 | 0 | 2
O=S1(=O)CCC(n2nc(-c3ccc(Cl)cc3)cc2NS(=O)(=O)c2cnc[nH]2)C1 (stereo not given) | -2 | -4
CN(CCC1CCOCC1)C(=O)CC1C(=O)NCCN1Cc1c(F)cccc1Cl (stereo not given) | 1 | -4

Reformatted with two lines to a compound: part of the list above.
Results follow in this order: NPYLR7 ag	NPYLR7 ag max-min
- Cc1ccc(Cn2c(CN3CCOCC3)nc3c2c(=O)[nH]c(=O)n3C)cc1
    -11	-12
- N#CC(=Cc1ccc(OC(F)F)cc1)C(N)=S
    14	2
- CCOC(=O)C1(C)CCN1C(=O)c1ccc(C)cc1 (stereo not given)
    2	0
- O=[N+]([O-])c1ccc2c(c1)S(=O)(=O)N=C2Nc1ccc(Br)cc1
    -15	-18
- CCCCCCc1ccc(C(=O)N2CCC[C@H]2C(=O)OCCc2ccc(OC)c(OC)c2)cc1
    -3	-10

(list continues)
SMILES | NPYLR7 ag | NPYLR7 ag max-min
CC(C)(C(=O)N1CCCC(OCc2cccnc2)C1)n1cccc1 (stereo not given) | -1 | -1
CC1CCCN(C(=O)CNC(=O)c2ccccc2Cl)C1 (stereo not given) | 0 | -2
CCNC(=O)NC(=O)C(C)Sc1nnc(N)s1 (stereo not given) | 4 | 2
C=CCc1cc(-c2nccn2C(C)Cn2cncn2)ccc1O (stereo not given) | 0 | -2
COc1cccc(Cn2c(C(=O)N3CCN(C(=O)Nc4ccc(C(F)(F)F)cc4)C(C)C3)cc3ccsc32)c1 (stereo not given) | -9 | -3
CCc1cc(-c2cccc3ccnn23)nc(N2CCOCC2)n1 | 0 | 2
COc1ccc2nc(NC(=O)CSc3nc4ccccc4s3)sc2c1 | -6 | -12
O=C(c1ccc2snnc2c1)N1CCN(Cc2cccc(-c3noc(-c4ccco4)n3)c2)CC1 | 6 | 3
CCOc1ccc(CN2CCN(C(=O)c3ccc[nH]c3=O)CC2)cc1 | -1 | -1
COc1ccc(C(C)N(C)C(=O)C=C(C)C)cc1 (stereo not given) | -1 | -3
Cc1ccccc1C1=NOC2CN(S(=O)(=O)c3cccc(Oc4ccccc4)c3)CC12 (stereo not given) | 9 | 5
CCCNC(=O)CNc1cc(F)c(OC)c(F)c1 | -6 | -5
CCOCCCn1c(SCc2cc3c(cc2Cl)OCO3)nc2cc(C(=O)OCC)ccc21 | 21 | 29
CC1SC(=CC#N)NC1=O (stereo not given) | 5 | 2
CC(C)Cc1cc(C(=O)N2CCCC2c2nc(-c3cccnc3)no2)n(C)n1 (stereo not given) | -3 | -5
COCCN(CC(=O)Nc1cc(C(C)(C)C)nn1-c1ccc(OC)cc1)C(=O)c1cc(C(F)(F)F)cc(C(F)(F)F)c1 | 14 | 23
Cn1cc(C(=O)N2CCC(CCO)C2)c(-c2ccccc2Cl)n1 (stereo not given) | 3&-23 | 3&-24
CC(NC(=O)c1cccc(Cn2cccn2)c1)c1cccs1 (stereo not given) | -2 | -1
COc1ccc(-c2nc3ccc(C)cn3c2NC(=O)/C=C/c2ccccc2)cc1OC | -4 | -4
COC(=O)CCCC(=O)N1CCCC(CNC(=O)c2cc3ccccc3[nH]2)C1 (stereo not given) | 8 | 4
C=CCNC(=O)NC(=O)COC(=O)C1C(C(=O)OC)=C(C)NC(C)=C1C(=O)OC | -2 | 11
CCn1c(C)c(C)n2c3c(=O)[nH]c(=O)n(C)c3nc12 | 4 | 2
CCOc1ccc2ccccc2c1CN1CCCC(N2CCCC2=O)C1 (stereo not given) | -5 | -10
COc1ccc(Cl)cc1C1=N/C(=C/c2ccc(N(C)C)cc2)C(=O)O1 | 28 | 16
CN1/C(=C\C(C[N+](=O)[O-])c2ccc3c(c2)OCO3)C(C)(C)c2ccccc21 (stereo not given) | 11 | 10
COc1ccc(C(=O)CSc2ncnc3sc(C)cc23)cc1 | -5 | -7
COc1cc(C=Cc2nc3sc4c(c3c(=O)[nH]2)CCCCC4)cc([N+](=O)[O-])c1O | 0 | -1
COc1ccc(C(=O)Nc2ccccc2C2SCC(=O)N2c2ccccc2C(C)C)cc1 (stereo not given) | -3 | 1
Cc1ccc(C)c2[nH]c(=O)c(CCNC(=O)c3cccc4ccccc34)cc12 | 0 | 14
Cc1cccc(N2CC(C)Cn3c2nc2c3c(=O)[nH]c(=O)n2C)c1 (stereo not given) | 0 | -2

Compound profiles, as listed above:
`COc1ccc(C(=O)CSc2ncnc3sc(C)cc23)cc1` is listed with NPYLR7 ag: -5; NPYLR7 ag max-min: -7
`COCCN(CC(=O)Nc1cc(C(C)(C)C)nn1-c1ccc(OC)cc1)C(=O)c1cc(C(F)(F)F)cc(C(F)(F)F)c1` is listed with NPYLR7 ag: 14; NPYLR7 ag max-min: 23

Following part:
SMILES | NPYLR7 ag | NPYLR7 ag max-min
CCN1CCN(C(=O)c2ccc(CSc3nnc(-c4ccco4)n3-c3ccc(C)cc3)cc2)CC1 | -3 | -1
CCc1ccc(NC(=O)NCCNc2cc(N3CCOCC3)nc(C)n2)cc1 | 0 | -1
Cc1ccc(S(=O)(=O)N2CCCCC2CC(=O)Nc2ccc(C)cn2)cc1 (stereo not given) | 7 | 2
Cc1ccc(F)cc1S(=O)(=O)N1CCC(Cc2ccc(C(F)(F)F)cc2)CC1 | 3 | 5
Cc1onc(-c2ccccc2)c1C(=O)NCCc1cccc(Cl)c1 | -4 | -5
C=CCn1c(NC2CCCCC2)nc2c1c(=O)n(C)c(=O)n2C | 1 | -3
COCCn1nc(C(=O)n2nc(N)c3ccccc32)ccc1=O | 4&-2 | 0&-3

An excerpt, so the mix of outcomes need not match the whole.
